Beta2AR agonist: beta2AR agonists driving receptor internalization, primary screen, cell-based, FAP fluorogen, flow cytometry. actives 0.43% (n = 340,000). Beta-2 adrenergic receptor (Homo sapiens), P07550. AID 504454, 2011. Am2.2-beta2AR cells; reference of the scale not given here. response, % (no concentration beside the values);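 active = response above a set limit, near 3 SD of response in nonfluorescent compounds, cut at about 42% in these data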;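 note: stock transfer was 100 nL into about 11 µL; a reference agonist was the positive control; negative values mostly stem from fluorescent compounds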
Target sequence (P07550 whole entry, looked up): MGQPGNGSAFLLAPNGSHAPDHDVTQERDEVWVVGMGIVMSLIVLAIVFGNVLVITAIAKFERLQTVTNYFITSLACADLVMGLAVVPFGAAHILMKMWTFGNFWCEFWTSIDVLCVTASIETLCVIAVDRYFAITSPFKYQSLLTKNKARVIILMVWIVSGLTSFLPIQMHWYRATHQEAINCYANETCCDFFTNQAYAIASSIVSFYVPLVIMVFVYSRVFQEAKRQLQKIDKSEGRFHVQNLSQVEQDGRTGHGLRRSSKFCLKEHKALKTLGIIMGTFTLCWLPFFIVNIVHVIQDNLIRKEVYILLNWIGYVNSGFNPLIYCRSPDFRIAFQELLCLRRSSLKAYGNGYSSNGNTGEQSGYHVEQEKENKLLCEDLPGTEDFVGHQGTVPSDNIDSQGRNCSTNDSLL
LANA-H2B inh: blockers of LANA interaction with H2A/H2B – biochemical, FP readout, HTS, primary screen; Protein LANA1 (Human herpesvirus 8 type P (isolate GK18)), Q9QR71; cell-free LANA-H2A/H2B peptide, fluorescence polarization; inhibition, % (no concentration beside the values); actives 0.6% (n = 320,000); AID 2629, 2010; in the data active = inhibition mostly above about 10%, no sharp cut-off; inactive = mostly below about 6.7%;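 note: stock transfer was 7.5 nL into about 10 µL; 0% = median of vehicle wells and 100% = median of positive control wells; one replicate is shown; the record names a cut of 25% in any replicate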
Calb FLC: C. albicans growth inhibition with fluconazole, primary screen, CaCi-2 strain, Alamar Blue fluorescence | AID 1979, 2009 | actives 0.57% (n = 300,000) | growth inhibition, % (no concentration beside the values) | C. albicans CaCi-2 (fluconazole-resistant clinical isolate) + fluconazole, 48 h;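 active = most replicates above 75%; inconclusive = exactly half above 75%; inactive = most below 75%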;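 note: all wells also contain fluconazole at 8 µg/ml as a sub-toxic cotreatment; 0% = median of DMSO wells and 100% = median of geldanamycin control wells; wells of about 8 µL received 7.5 nL stock; the first replicate is given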
T cruzi repl: inhibitors of intracellular T. cruzi growth, primary screen, luminescence, NIH3T3 host cells; AID 1885, 2009; inhibition, % (no concentration beside the values); T. cruzi beta-gal in NIH3T3, 90 h; actives 1.4% (n = 300,000);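 active = mean inhibition across valid replicates above about 55%, limit read from the data; inconclusive = mean below that limit but half or more replicates reach it; inactive = mean below it, under half of replicates reach it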;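 note: signal also drops with host cell toxicity which is not excluded here; 0% = plate median of DMSO wells and 100% = zero luminescence signal; higher percent means less beta-gal luminescence so fewer parasites; stock transfer was 50 nL into about 50 µL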
ALR H2O2 inh: inhibitors of human ALR sulfhydryl oxidase, primary screen, biochemical, H2O2 detection, HRP-luminol luminescence, single point; actives 3.8% (n = 290,000); AID 485317, 2010; inhibition, % (test concentration not listed); purified ALR, DTT oxidation; FAD-linked sulfhydryl oxidase ALR (Homo sapiens), P55789;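 active = mean and each replicate at 75% or more; inconclusive = only one of the two met; inactive = neither met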;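 note: stock transfer was 7.5 nL into about 7.5 µL; 0% = neutral wells and 100% = wells with inactivated enzyme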
Target sequence (P55789 whole entry, looked up): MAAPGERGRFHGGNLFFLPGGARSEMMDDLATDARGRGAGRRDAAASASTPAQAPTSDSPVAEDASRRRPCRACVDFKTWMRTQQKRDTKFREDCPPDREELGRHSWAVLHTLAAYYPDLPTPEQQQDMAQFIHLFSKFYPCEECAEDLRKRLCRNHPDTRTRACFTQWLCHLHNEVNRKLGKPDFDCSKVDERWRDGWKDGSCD
rRNA inh HTS: reduced GFP signal of wild-type E. coli, primary screen, bacterial rRNA inhibitor project, GFP/RFP fluorescence, OD600, single point; E. coli WT GFP vs humanized-ribosome RFP mutants, 24 h; hits give low values; DMSO median 0, no signal -100; GFP signal change (wild-type ribosome), % (concentration not given with the values); actives 1.6% (n = 350,000); AID 720706, 2013;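 active = significant combined selectivity score with lowered wild-type GFP, culture density cut under 30%, mutant RFP and density less affected; inactive = any of these conditions unmet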; note: one replicate is shown; some compounds called inactive have numbers as strong as hits
Bfl-1 A1 inh: caspase 3/7 activation in MEF A1-2A-BIM cells, primary screen, A1 inhibitor project, cell-based, luminescence, HTS | Caspase-Glo 3/7 luminescence, 3 h; percent of clofoctol response, vehicle zero | caspase activation, % (no concentration beside the values) | actives 0.066% (n = 330,000) | AID 2462, 2010;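 active = over half of replicate activation scores above 10%, or exactly half above 10 with the replicate mean above 10; inconclusive = replicate mean below 10 yet half the replicates above 10; inactive = over half of replicates below 10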;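 note: wells of about 30 µL received 50 nL stock; many hits fall short of the cut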
Beta cell apopt: inhibitors of cytokine-induced beta cell apoptosis, primary screen, luminescence; INS-1E cytokine-induced death, ATP luminescence, 48 h; percent of positive-control rescue, neutral wells zero; protection from apoptosis, % (test concentration not listed); actives 0.8% (n = 300,000);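 active = all replicates at 75% or more, or half of them and the mean; inconclusive = half reach 75% but not the mean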;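 note: 0% = cytokine-treated negative control wells and 100% = positive control rescue; higher means more ATP so stronger rescue from cytokine killing; wells of about 40 µL received 100 nL stock; the first replicate is given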
rRNA inh HTS OD600: also measured in rRNA inh HTS; calls as there; OD600 change, %; measured here: OD600 growth;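 optical density of the mix in the first replicate; 0 = DMSO median and -100 = no signal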
rRNA inh HTS RFP: also measured in rRNA inh HTS; calls as there; RFP signal change, %; measured here: RFP humanized mutant strains;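 first replicate; 0 = DMSO median and -100 = no signal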
Active calls of the source: *; u = inconclusive; x = no result given. Some of the compounds tested (hit frequency here may not be typical).

Compound	Beta2AR agonist	LANA-H2B inh	Calb FLC	T cruzi repl	ALR H2O2 inh	rRNA inh HTS	rRNA inh HTS OD600	rRNA inh HTS RFP	Bfl-1 A1 inh	Beta cell apopt
Cc1ccc(NC(=O)CN2C(=O)N/C(=C/c3ccc4c(c3)OCCO4)C2=O)cc1	10	6.7	8	-14	x	22	10	1.6	0.0	-10
CCOC(=O)C1=C(C)C(c2ccccc2OC)NC(=S)N1 (stereo not drawn)	0	-0.1	-6	2	2	x	x	x	1.1	5
Fc1cccc2sc(Nc3nnc(-c4ccco4)o3)nc12	7	-5.8	85*	23	1	x	x	x	-5.6	27
CC(C)C(NC(=O)CCN1C(=O)c2ccccc2C1=O)c1ccccc1 (stereo not drawn)	-5	0.3	-1	-10	-1	11	7	2.2	1.3	x
CCN(C(=O)c1ccc2c(=O)n3c(nc2c1)CCCCC3)c1ccc(F)cc1	0	2.9	7	5	-2	9	3	0.3	0.0	3
CO[C@@]1(NC(=O)C2SC(=C(C(N)=O)C(=O)O)S2)C(=O)N2C(C(=O)O)=C(CSc3nnnn3C)CS[C@@H]21 (stereo partly drawn)	2	1.3	x	x	-6	x	x	x	0.2	3
CCC(C)NC(=O)C1CCN(S(=O)(=O)c2cccnc2)CC1 (stereo not drawn)	-2	-1.5	13	-13	2	x	x	x	-0.4	-2
CCCC(=O)Nc1nnc(S(=O)(=O)N(CC)c2ccccc2)s1	-4	0.1	1	-3	x	0	7	-1.8	-0.6	-9
Cc1ccc(C(=O)N/C(=C\c2cn(-c3ccccc3)nc2-c2ccccc2)C(=O)N2CCOCC2)cc1	-12	-6.1	8	2	-14	x	x	x	-1.1	1
O=C(Cn1nc2ccccc2n1)N/N=C/c1cc([N+](=O)[O-])ccc1O	-3	-11	u	-12	18	1	21	16	-1.1	40
Cc1ccc(C)c(N2CCN(C(=O)CCNC(=O)Cn3ccc4ccccc4c3=O)CC2)c1	8	0.3	-6	-23	2	x	x	x	0.1	2
COc1cccc(NC(=O)c2oc3ccc(S(=O)(=O)N4CCOCC4)cc3c2C)c1	19	-1.8	-12	8	82*	-13	-2	-1.0	0.8	-4
Cc1cc(C)cc(-n2c(SCC(=O)Nc3cccc(S(=O)(=O)NC4=NCCCCC4)c3)nc3ccccc3c2=O)c1	15	0.0	-2	20	x	x	x	x	0.6	5
Cc1c(NS(=O)(=O)c2cccc(C(=O)N3CCCC3)c2)c(=O)n(-c2ccccc2)n1C	-3	-2.8	x	x	-7	22	12	0.2	1.2	-4
C=CCCN(C(C(=O)OC)C(C)C)S(=O)(=O)c1ccccc1Br (stereo not drawn)	3	-3.7	-6	7	-8	-22	-22	-1.5	u	1
O=C(COc1ccc(Cl)cc1)NNC(=O)CSc1nncs1	6	-4.5	-13	-10	-5	3	3	1.4	0.7	0
O=C(Cn1nnc2ccccc21)c1ccccc1	0	2.0	6	-6	-2	12	11	1.2	1.1	-13
O=C(COC(=O)/C=C/c1ccc([N+](=O)[O-])cc1)NC(c1ccccc1)c1ccccc1	11	0.0	0	-9	x	x	x	x	0.3	-3
COc1ccccc1C(=O)N(C)CC(=O)Nc1ccc(N2CCOCC2)cc1	10	x	x	x	49	3	11	-2.9	0.4	1
CN(Cc1ccsc1)C(=O)CCc1nnc(Cc2c[nH]c3ccccc23)o1	-4	0.1	2	-6	-1	-15	-24	-2.7	0.5	x
COc1ccc(/C=C(\NC(=O)c2ccc(C)cc2)C(=O)NCCCn2ccnc2)cc1	-1	1.6	-5	-13	-7	7	11	-1.3	1.1	-2
O=C(Nc1ccccc1)N1CCCC(c2nc(-c3ccc(F)cc3)no2)C1 (stereo not drawn)	-7	4.9	10	-5	-15	x	x	x	0.5	-6
Cc1cc(N/N=C/c2ccc(Cl)cc2)nc(NCc2ccccc2)n1	12	-3.0	8	80*	-7	-52	-69	-21	-0.2	24
COC(=O)c1sc2ccccc2c1NC(=O)c1ccc(S(=O)(=O)N2CCCC(C)C2)cc1 (stereo not drawn)	17	-4.5	-8	24	-2	x	x	x	0.8	3
COCCCn1c(C2CCCCC2)nc2oc3cc(OC)ccc3c(=O)c2c1=O	-9	-0.3	4	9	-4	-2	4	-1.5	-1.0	2
CCCCc1nc2cc(C(=O)N3CCC[C@H]3CO)ccc2o1	-4	-3.1	-8	-5	6	6	11	-1.8	-0.5	-1
CCO[C@@H]1OC(C(=O)N2CCCCCCC2)=C[C@H](c2cn(C(C)=O)c3ccccc23)[C@H]1CCCO	-5	0.5	18	21	-6	x	x	x	0.4	0
Cn1cnnc1SCC(=O)Nc1cc(C(F)(F)F)ccc1N1CCOCC1	-2	-0.2	-10	6	-2	-5	-3	-0.6	0.1	-5
O=C(NCc1cccs1)C(=O)NCC1OCCCN1S(=O)(=O)c1ccccc1 (stereo not drawn)	1	-0.4	-3	-19	-4	x	x	x	3.3	-6
COc1ccc2nc(/C=N/NC(=O)CCCCCNC(=O)OC(C)(C)C)ccc2c1	1	-4.7	17	-5	-17	-11	-6	0.0	-0.7	0
COc1ccc(CNC(=O)c2c([S-])n(-c3ccc(C)cc3)c3cccc[n+]23)cc1	-5	-2.0	15	14	3	-8	2	-5.4	0.4	-1
CC1COC(c2cccn2Cc2ccccc2Cl)=N1 (stereo not drawn)	-13	-5.0	1	14	-1	x	x	x	0.3	-14
Cc1ccc(NC(C)c2cc(Cl)ccc2O)cc1 (stereo not drawn)	9	-3.4	-16	4	64	x	x	x	-0.1	-6
COc1cccc(C2C(C(N)=O)=C(C)Nc3nc(-c4cccc(Cl)c4)nn32)c1 (stereo not drawn)	-5	9.7	55	5	11	x	x	x	-0.3	5
O=C(O)CSc1nc2c(c(C(F)(F)F)n1)CCc1ccccc1-2	11	6.7	36	5	-40	-19	-15	0.4	-0.5	0
O=C(Nc1cccc(C(F)(F)F)c1)C1CCN(S(=O)(=O)c2ccc(N3CCCC3=O)cc2)CC1	-8	-2.2	12	34	-13	-3	-20	4.2	0.9	40
CC1=NN(C(N)=S)C(=O)C1N=Nc1cccc(C(=O)O)c1 (stereo not drawn)	1	-1.9	8	-12	8	14	8	0.7	-7.8	x
Cc1ccc(C(C)NC(=O)c2ccco2)cc1C (stereo not drawn)	5	1.4	12	-1	2	-10	-5	-1.7	-0.5	2
C/C(=N\NC(N)=S)c1ccccc1	-7	-2.9	-2	-2	x	21	3	0.4	0.0	-7
COc1ccc(OCC(=O)OC2CCN(C)CC2)cc1	1	6.7	5	-5	-26	x	x	x	-0.7	0
Cn1cc(C(=O)N2CCN(c3cccc(Cl)c3)CC2)c(=O)c2cc(S(=O)(=O)N3CCOCC3)ccc21	-4	-4.5	-7	-1	5	-8	-5	2.2	0.7	4
O=C(C1=C(O)C(=O)N(CCN2CCOCC2)C1c1ccc(F)cc1)c1cc2ccccc2o1 (stereo not drawn)	75*	-7.4	18	-10	29	1	17	-2.8	0.1	-3
COc1ccc(NS(=O)(=O)c2cccc(C(=O)NNC(=O)c3ccc(Br)o3)c2)cc1	6	-1.4	1	-9	6	0	-17	1.9	-0.1	-11
COc1ccc(-c2cc(=O)c3cc(F)ccc3[nH]2)cc1	2	1.1	-11	9	-9	3	4	-1.1	0.0	7
CC(C)C(=O)NC(c1ccccc1Cl)c1c(O)ccc2ccccc12 (stereo not drawn)	3	-2.1	0	12	-10	-14	0	7.4	1.6	-9
CCOc1cc(C(=O)N(C)CC(=O)Nc2cccc3ccccc23)ccc1OC	3	-0.1	x	x	-5	6	4	-1.0	-0.4	1
Cc1nc2ccc(NC(=O)c3cccc(C(F)(F)F)c3)cc2o1	-6	1.4	-15	-11	-2	x	x	x	-0.4	5
CCc1nnc(SCc2ccc(C(=O)OC)o2)n1N	-3	-2.4	-10	-2	97*	x	x	x	2.3	-1
Cc1cccc(NS(=O)(=O)c2cccc(C(=O)N3CCCCCC3)c2)c1	-2	3.5	-4	4	x	-6	-14	3.1	-0.2	x
CCCCCCSc1cccc(-c2nc3ccc(Cl)cn3c2NCc2ccccc2)c1	-4	8.1	-1	38	x	5	4	13	0.1	7
CCOC(=O)/C(C#N)=C/c1c[nH]c2ccccc12	-12	4.1	-9	4	x	x	x	x	-1.5	2
COc1cc(NC(=O)COC(=O)/C=C/c2ccc(OC)c(OC)c2)cc(OC)c1	8	1.6	6	-8	50	-43	-63	-8.3	0.3	-8
NS(=O)(=O)c1ccc(CCNC(=O)C2CCN(S(=O)(=O)c3c(Cl)cccc3Cl)CC2)cc1	-12	1.0	0	-9	-8	-10	-11	-3.5	-0.4	0
NC(=O)c1nsc(C(=O)N(CCc2ccccc2)C(C(=O)NC2CCCC2)c2ccco2)c1N (stereo not drawn)	11	4.7	u	15	-4	-3	5	2.3	0.1	0
O=C(Nc1ccc(NC(=O)C2CCCCC2)cn1)c1ccco1	-8	2.7	-4	-11	2	x	x	x	-7.1	0
Cc1ccc(Cn2ccc(NC(=O)c3noc4c3CCCC4)n2)cc1	-3	-1.0	-10	-13	-11	x	x	x	u	-4
O=C(Nc1ccc(C2=NCCN2)cc1)c1ccc(Cl)c(C(=O)Nc2ccc(C3=NCCN3)cc2)c1	x	-10	u	-5	-18	x	x	x	-0.2	1
CC(C)C(C)NC(=O)CN1C(=O)NC2(CCc3ccccc32)C1=O (stereo not drawn)	-5	-1.3	-6	-4	1	4	8	1.5	0.4	-5
N#Cc1c2c(c(NCCCN3CCOCC3)n3c1nc1ccccc13)CCC2	-2	4.1	5	20	-1	x	x	x	0.2	-8
Cc1ccc2c(c1)N(CCC(=O)NCc1ccccn1)C(=O)CO2	-3	0.8	-27	5	-11	15	5	-0.9	-0.9	-5

Later entries:
Compound	Beta2AR agonist	LANA-H2B inh	Calb FLC	T cruzi repl	ALR H2O2 inh	rRNA inh HTS	rRNA inh HTS OD600	rRNA inh HTS RFP	Bfl-1 A1 inh	Beta cell apopt
O=C1NC(=S)N/C1=C\C=C\c1ccccc1	7	2.1	2	5	1	5	-2	0.3	-0.8	-2
CCN(CC(=O)Nc1ccccc1C(F)(F)F)C(=O)c1ccc(N2C(=O)CCC2=O)cc1	2	2.7	0	-18	4	8	3	-1.4	0.6	2
CN(CC(=O)Nc1cccc(F)c1)C(=O)CN1c2cccc3cccc(c23)S1(=O)=O	-6	0.7	x	x	-19	-40*	-18*	8.8*	1.2	-9
COc1cc2nc(CN3CCN(C(C)=O)CC3)[nH]c(=O)c2cc1OC	-3	-3.2	-2	10	-4	2	15	-0.1	-1.6	0

Screening results (PubChem)
